Source: PubChem
A1 apoptosis 2 – blocks A1, raising caspase activity. MEF A1-2A-BIM cells, caspase-Glo luminescence, 3 h; percent of clofoctol response, DMSO zero. caspase activation, % (concentration not given with the values). 24,000 tested, under 10 active. AID 2465; in the data active = caspase activation above about 5.9%;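 note: wells of about 30 µL received 50 nL stock; the first replicate is given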
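Evaluation: Caspase-3/7 activity from luminescence increase | Assay system: A1-2A-BIM mouse embryonic fibroblasts | Quantity: 2500 MEF cells/well | Medium: RPMI-1640 plus 10% FBS | Detection: Caspase-Glo 3/7 luminescence, 1 h at room temperature | Dosing: 50 nL compound per well, pinned | Timing: Cells settled overnight, compound exposure 3 h at 37 °C, 5% CO2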
Numbers without * were called inactive.

SMILES	A1 apoptosis 2
COc1ccc(NC(=O)N(C)C[C@@H]2OCCCC[C@H](C)Oc3ccc(NS(=O)(=O)c4ccccc4)cc3C(=O)N([C@H](C)CO)C[C@@H]2C)cc1	-1.0
C[C@@H]1CN([C@@H](C)CO)C(=O)c2cccc(NS(=O)(=O)c3cn(C)cn3)c2O[C@H]1CN(C)Cc1ccc(Cl)c(Cl)c1	-1.4
C[C@@H]1CCCCO[C@@H](CN(C)C(=O)c2ccncc2)[C@@H](C)CN([C@@H](C)CO)C(=O)c2cc(NS(=O)(=O)c3cccs3)ccc2O1	1.4
C[C@@H]1CCCCO[C@H](CN(C)S(=O)(=O)c2ccc(F)cc2)[C@H](C)CN([C@H](C)CO)C(=O)c2cc(NS(=O)(=O)c3ccc(F)cc3)ccc2O1	0.3
C[C@@H]1CN([C@H](C)CO)C(=O)Cc2cc(NC(=O)NC3CCCCC3)ccc2O[C@H]1CN(C)C(=O)Nc1ccccc1	0.2
COc1ccc(S(=O)(=O)Nc2ccc3c(c2)C(=O)N([C@@H](C)CO)C[C@@H](C)[C@@H](CN(C)Cc2ccccc2)OCCCC[C@H](C)O3)cc1	-0.4
C[C@@H]1CN([C@@H](C)CO)C(=O)c2cc(NS(=O)(=O)c3cccs3)ccc2O[C@H]1CN(C)C(=O)Nc1ccc(F)cc1	0.0
C[C@H]1CN([C@@H](C)CO)C(=O)CCCn2cc(nn2)CO[C@H]1CN(C)Cc1ccccc1C(F)(F)F	-0.2
COc1ccc(S(=O)(=O)Nc2ccc3c(c2)C(=O)N([C@@H](C)CO)C[C@H](C)[C@@H](CN(C)S(=O)(=O)c2ccc(F)cc2)O3)cc1	1.9
C[C@H]1CN([C@@H](C)CO)C(=O)CCCn2cc(nn2)CO[C@@H]1CN(C)Cc1ccc2cccnc2c1	-0.5
C[C@@H]1CN([C@@H](C)CO)C(=O)c2cccc(NS(=O)(=O)c3ccc(F)cc3)c2O[C@H]1CN(C)Cc1ccc(C(=O)O)cc1	-0.1
Cc1noc(C)c1NC(=O)N(C)C[C@@H]1Oc2c(NC(=O)Nc3ccccc3)cccc2C(=O)N([C@@H](C)CO)C[C@H]1C	2.2
C[C@H](CO)N1C[C@H](C)[C@@H](CN(C)C(=O)NC2CCCCC2)Oc2c(NC(=O)Nc3cccc4ccccc34)cccc2C1=O	-1.8
C[C@H]1CN([C@@H](C)CO)C(=O)c2cccc(NC(=O)Nc3ccc4c(c3)OCO4)c2O[C@H]1CN(C)S(=O)(=O)c1ccc(F)cc1	0.1
C[C@H]1CN([C@@H](C)CO)C(=O)c2cc(NS(=O)(=O)c3ccc(F)cc3)ccc2O[C@H]1CN(C)C	-0.8
COC(=O)N(C)C[C@H]1OCc2cnnn2CCCC(=O)N([C@@H](C)CO)C[C@@H]1C	0.0
COc1ccc(NC(=O)Nc2ccc3c(c2)C(=O)N([C@@H](C)CO)C[C@@H](C)[C@@H](CN(C)C)OCCCC[C@H](C)O3)cc1	0.5
C#Cc1ccc(OC)c(OC)c1	0.5
COc1ccc(NC(=O)N(C)C[C@@H]2Oc3ccc(N(C)C)cc3C(=O)N([C@H](C)CO)C[C@H]2C)cc1	1.6
C[C@H]1CN([C@@H](C)CO)C(=O)c2cc(NC(=O)NC3CCCCC3)ccc2O[C@@H]1CN(C)S(=O)(=O)c1cccs1	1.2
COc1ccc(NC(=O)Nc2cccc3c2O[C@@H](CN(C)S(C)(=O)=O)[C@H](C)CN([C@@H](C)CO)C3=O)cc1	0.6
COc1ccc(S(=O)(=O)Nc2ccc3c(c2)C(=O)N([C@H](C)CO)C[C@H](C)[C@H](CN(C)C(=O)NC(C)C)OCCCC[C@@H](C)O3)cc1	1.2
Cc1ccc(S(=O)(=O)N(C)C[C@H]2Oc3ccc(NS(=O)(=O)c4cccs4)cc3CC(=O)N([C@@H](C)CO)C[C@H]2C)cc1	0.7
COc1ccc(S(=O)(=O)Nc2ccc3c(c2)C(=O)N([C@@H](C)CO)C[C@H](C)[C@H](CN(C)C)OCCCC[C@@H](C)O3)cc1	0.9
CNC[C@H]1OCCCC[C@H](C)Oc2ccc(NC(=O)CCCN(C)C)cc2C(=O)N([C@@H](C)CO)C[C@@H]1C	1.5
C[C@H]1CN([C@@H](C)CO)C(=O)c2cccc(NC(=O)Nc3ccc(C(F)(F)F)cc3)c2O[C@H]1CN(C)Cc1ccc(C(=O)O)cc1	0.3
CC(C)NC(=O)Nc1ccc2c(c1)C(=O)N([C@@H](C)CO)C[C@@H](C)[C@@H](CN(C)C(=O)Nc1ccc3c(c1)OCO3)O2	-1.1
C[C@H]1CN([C@@H](C)CO)C(=O)Cc2cc(NS(=O)(=O)c3cccs3)ccc2O[C@@H]1CN(C)Cc1ccc(Cl)c(Cl)c1	-0.1
C[C@@H]1CN([C@@H](C)CO)C(=O)c2cccc(NC(=O)CCCCCC(=O)Nc3ccccc3N)c2O[C@H]1CN(C)Cc1ccccc1	-0.8
COc1ccc(S(=O)(=O)N(C)C[C@@H]2Oc3ccc(NC(=O)Cc4ccccc4)cc3C(=O)N([C@H](C)CO)C[C@@H]2C)cc1	1.0
COc1ccc(CN(C)C[C@@H]2OCCCC[C@H](C)Oc3ccc(NS(=O)(=O)c4c(C)noc4C)cc3C(=O)N([C@@H](C)CO)C[C@@H]2C)cc1	0.7
COc1ccc(NC(=O)Nc2ccc3c(c2)C(=O)N([C@@H](C)CO)C[C@@H](C)[C@H](CN(C)C(=O)Nc2ccc(F)cc2)OCCCC[C@@H](C)O3)cc1	0.3
C[C@H]1CN([C@@H](C)CO)C(=O)c2cc(NC(=O)C3CC3)ccc2O[C@H]1CN(C)S(=O)(=O)c1cn(C)cn1	-1.3
Cc1noc(C)c1NC(=O)N(C)C[C@H]1Oc2ccc(NC(=O)CCN3CCOCC3)cc2CC(=O)N([C@@H](C)CO)C[C@@H]1C	-0.3
C[C@@H]1CN([C@H](C)CO)C(=O)c2cccc(NC(=O)C3CC3)c2O[C@H]1CN(C)S(=O)(=O)c1cccs1	-0.1
C[C@H](CO)N1C[C@H](C)[C@H](CN(C)CC2CCCCC2)Oc2ccc(NC(=O)CCN3CCOCC3)cc2CC1=O	-0.2
C[C@@H]1CN([C@@H](C)CO)C(=O)c2cccc(NS(=O)(=O)c3ccc(Cl)cc3)c2O[C@@H]1CN(C)Cc1ccc(-c2ccccc2)cc1	-0.4
Cc1noc(C)c1NC(=O)N(C)C[C@H]1Oc2c(NC(=O)NC3CCCCC3)cccc2C(=O)N([C@@H](C)CO)C[C@H]1C	1.6
C[C@H](CO)N1C[C@H](C)[C@H](CN(C)Cc2ccc(Cl)c(Cl)c2)Oc2c(NC(=O)CCCCCC(=O)Nc3ccccc3N)cccc2C1=O	-1.3
C[C@@H]1CN([C@H](C)CO)C(=O)Cc2cc(NS(=O)(=O)c3ccc(Cl)cc3)ccc2O[C@H]1CN(C)C(=O)Nc1ccc(F)cc1	2.7
COc1ccc(S(=O)(=O)N(C)C[C@H]2Oc3ccc(NC(=O)C4CCCCC4)cc3C(=O)N([C@H](C)CO)C[C@@H]2C)cc1	-0.4
C[C@H](CO)N1C[C@H](C)[C@@H](CN(C)Cc2ccc(C(=O)O)cc2)OCCCC[C@H](C)Oc2ccc(NS(=O)(=O)c3ccc(F)cc3)cc2C1=O	-1.5
Cc1noc(C)c1S(=O)(=O)N(C)C[C@@H]1Oc2ccc(NC(=O)CCCN(C)C)cc2C(=O)N([C@H](C)CO)C[C@@H]1C	-0.7
COc1ccc(S(=O)(=O)Nc2ccc3c(c2)C(=O)N([C@@H](C)CO)C[C@@H](C)[C@H](CN(C)Cc2ccccc2)OCCCC[C@H](C)O3)cc1	0.5
C[C@H](CO)N1C[C@H](C)[C@@H](CN(C)S(=O)(=O)c2ccc(Cl)cc2)OCc2cnnn2CCCC1=O	1.3

The list goes on, starting with the last 3 of the part before.
SMILES	A1 apoptosis 2
Cc1noc(C)c1S(=O)(=O)N(C)C[C@@H]1Oc2ccc(NC(=O)CCCN(C)C)cc2C(=O)N([C@H](C)CO)C[C@@H]1C	-0.7
COc1ccc(S(=O)(=O)Nc2ccc3c(c2)C(=O)N([C@@H](C)CO)C[C@@H](C)[C@H](CN(C)Cc2ccccc2)OCCCC[C@H](C)O3)cc1	0.5
C[C@H](CO)N1C[C@H](C)[C@@H](CN(C)S(=O)(=O)c2ccc(Cl)cc2)OCc2cnnn2CCCC1=O	1.3
Cc1ccc(S(=O)(=O)Nc2ccc3c(c2)C(=O)N([C@H](C)CO)C[C@H](C)[C@H](CN(C)C(=O)Nc2ccccc2)OCCCC[C@H](C)O3)cc1	-0.2
COc1ccc(S(=O)(=O)N(C)C[C@H]2Oc3c(NC(=O)Nc4c(C)noc4C)cccc3C(=O)N([C@H](C)CO)C[C@H]2C)cc1	0.8
C[C@@H]1CN([C@@H](C)CO)C(=O)c2cc(NC(=O)Nc3ccc(F)cc3)ccc2O[C@@H](C)CCCCO[C@H]1CN(C)C(=O)Cc1ccccc1	-0.8
COc1ccc(S(=O)(=O)N(C)C[C@H]2Oc3c(NS(=O)(=O)c4ccc(Cl)cc4)cccc3C(=O)N([C@@H](C)CO)C[C@H]2C)cc1	-1.3
C[C@@H]1CN([C@@H](C)CO)C(=O)Cc2cc(NC(=O)NC3CCCCC3)ccc2O[C@@H]1CN(C)C	0.7
COc1ccc(CN(C)C[C@H]2Oc3c(NS(=O)(=O)c4ccc(OC)cc4)cccc3C(=O)N([C@@H](C)CO)C[C@H]2C)cc1	-0.4
C[C@H](CO)N1C[C@H](C)[C@@H](CN(C)Cc2ccc(C(=O)O)cc2)Oc2ccc(NC(=O)Nc3cccc4ccccc34)cc2C1=O	1.7
Cc1noc(C)c1NC(=O)N(C)C[C@@H]1Oc2ccc(NS(C)(=O)=O)cc2CC(=O)N([C@@H](C)CO)C[C@@H]1C	-0.2
CNC[C@@H]1OCCCC[C@@H](C)Oc2ccc(NC(=O)c3ccccc3)cc2C(=O)N([C@H](C)CO)C[C@@H]1C	-0.8
C[C@H]1CN([C@@H](C)CO)C(=O)c2cccc(NC(=O)Nc3ccccc3)c2O[C@@H]1CN(C)S(C)(=O)=O	-0.9
COc1ccc(CN(C)C[C@@H]2Oc3ccc(NC(=O)CCCCCC(=O)Nc4ccccc4N)cc3CC(=O)N([C@H](C)CO)C[C@@H]2C)cc1	-0.1
C[C@H](CO)N1C[C@H](C)[C@H](CN(C)C(=O)C2CCCCC2)OCCCC[C@H](C)Oc2ccc(NC(=O)Nc3ccccc3)cc2C1=O	1.8
C[C@@H]1CN([C@@H](C)CO)C(=O)c2cc(NC(=O)Nc3cccc4ccccc34)ccc2O[C@H]1CN(C)S(=O)(=O)c1cccs1	-0.6
C[C@@H]1CN([C@H](C)CO)C(=O)c2cccc(NC(=O)Nc3ccccc3)c2O[C@@H]1CN(C)Cc1ccc(C(=O)Nc2ccccc2N)cc1	0.8
COc1ccc(S(=O)(=O)Nc2ccc3c(c2)C(=O)N([C@@H](C)CO)C[C@@H](C)[C@@H](CN(C)C(=O)Nc2ccc(F)cc2)OCCCC[C@H](C)O3)cc1	0.1
Cc1cc(C(=O)Nc2cccc3c2O[C@H](CN(C)Cc2ccc(-c4ccccc4)cc2)[C@H](C)CN([C@@H](C)CO)C3=O)n(C)n1	-0.1
C[C@@H]1CCCCO[C@@H](CN(C)S(=O)(=O)c2ccccc2)[C@H](C)CN([C@@H](C)CO)C(=O)c2cc(NS(=O)(=O)c3ccccc3)ccc2O1	1.3
C[C@@H]1CN([C@H](C)CO)C(=O)Cc2cc(NC(=O)CCN3CCOCC3)ccc2O[C@H]1CN(C)Cc1ccccc1	0.3
C[C@@H]1CN([C@H](C)CO)C(=O)Cc2cc(NC(=O)CCCCCC(=O)Nc3ccccc3N)ccc2O[C@@H]1CN(C)Cc1ccc(Oc2ccccc2)cc1	1.5
CNC[C@H]1Oc2c(NS(=O)(=O)c3ccc(Cl)cc3)cccc2C(=O)N([C@@H](C)CO)C[C@H]1C	1.2
C[C@@H]1CN([C@H](C)CO)C(=O)c2cc(NS(C)(=O)=O)ccc2O[C@H]1CN(C)Cc1ccc(C(F)(F)F)cc1	0.1
CC(C)NC(=O)Nc1cccc2c1O[C@H](CN(C)C(=O)Nc1ccc3c(c1)OCO3)[C@@H](C)CN([C@H](C)CO)C2=O	0.2
Cc1noc(C)c1S(=O)(=O)N(C)C[C@H]1OCCCC[C@@H](C)Oc2ccc(NS(C)(=O)=O)cc2C(=O)N([C@@H](C)CO)C[C@@H]1C	1.0
C[C@H]1CN([C@@H](C)CO)C(=O)CCCn2nncc2CO[C@@H]1CN(C)S(=O)(=O)c1ccc(Cl)cc1	0.7
Cc1noc(C)c1NC(=O)Nc1ccc2c(c1)C(=O)N([C@@H](C)CO)C[C@H](C)[C@@H](CN(C)Cc1ccc(C(F)(F)F)cc1)O2	-1.4
Cc1noc(C)c1NC(=O)Nc1cccc2c1O[C@@H](CN(C)S(=O)(=O)c1ccc(Cl)cc1)[C@H](C)CN([C@@H](C)CO)C2=O	0.3

7 records drawn at random from the list so far, as already listed:
SMILES	A1 apoptosis 2
Cc1noc(C)c1NC(=O)Nc1cccc2c1O[C@@H](CN(C)S(=O)(=O)c1ccc(Cl)cc1)[C@H](C)CN([C@@H](C)CO)C2=O	0.3
C[C@@H]1CN([C@H](C)CO)C(=O)c2cc(NS(C)(=O)=O)ccc2O[C@H]1CN(C)Cc1ccc(C(F)(F)F)cc1	0.1
C[C@@H]1CCCCO[C@@H](CN(C)S(=O)(=O)c2ccccc2)[C@H](C)CN([C@@H](C)CO)C(=O)c2cc(NS(=O)(=O)c3ccccc3)ccc2O1	1.3
C[C@@H]1CN([C@H](C)CO)C(=O)Cc2cc(NC(=O)CCN3CCOCC3)ccc2O[C@H]1CN(C)Cc1ccccc1	0.3
CC(C)NC(=O)Nc1cccc2c1O[C@H](CN(C)C(=O)Nc1ccc3c(c1)OCO3)[C@@H](C)CN([C@H](C)CO)C2=O	0.2
Cc1cc(C(=O)Nc2cccc3c2O[C@H](CN(C)Cc2ccc(-c4ccccc4)cc2)[C@H](C)CN([C@@H](C)CO)C3=O)n(C)n1	-0.1
CNC[C@H]1Oc2c(NS(=O)(=O)c3ccc(Cl)cc3)cccc2C(=O)N([C@@H](C)CO)C[C@H]1C	1.2

This is a subset; the hit share may differ from the screen's.
